gsp antagonist: antagonists of gsp mutant (McCune-Albright syndrome); gsp-mutant cells, cAMP HTRF, 30 min; control for the full effect not named in the record; Potency, µM (doses to about 76.9 µM), without a hit: top-dose activity change, negative = inhibition, actives largely listed as inhibitors; actives 0.4% (n = 340,000); AID 624288; active = falling curve of any shape with a large fitted effect; inconclusive = falling curve, mostly with a smaller effect; inactive = flat or rising curve; cell line not stated here;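 note: intracellular cAMP measured with PDE inhibitor Ro 20-1724 present during compound exposure; potency is the fitted concentration of half-maximal effect; % is set by controls: 0 for no effect and ±100 for the full control effect; nearly all actives have a fitted effect of over 65% in size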
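HTRF cAMP read-out (cAMP-d2 plus anti-cAMP antibody-K in lysis buffer, 30 min RT). Before lysis, cells are exposed to compounds with […] for 30 min at 37C in DPBS containing Ca/Mg, BSA and Tween 20.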
D2 ag: human D2 receptor agonism in beta-arrestin assay; activation, % (test concentration not listed); actives 0.084% (n = 360,000); DiscoveRx PathHunter D2 beta-arrestin, luminescence, 90 min; 100% = 57 uM dopamine signal; AID 624465; in the data active = activation above about 40%; inconclusive = about 15% to 40%; inactive = below about 15%; note: compound concentration not given in the record; the text of the record calls up to 30% inactive
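DiscoveRx PathHunter D2 beta-arrestin cells (2,100/well) attached overnight, then compound-stimulated 90 min at 37 C in HBSS/10 mM HEPES/0.1% Tween-20 buffer; beta-galactosidase complementation read by luminescence after 1 h at ambient temperature. Dopamine 57 uM final (EC100) as control.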
D2 PAM: potentiates the human D2 dopamine receptor allosterically. DiscoveRx D2 beta-arrestin cells, luminescence, 90 min; 100% = 57 uM dopamine signal. AID 624464. actives 0.23% (n = 360,000). potentiation, % (no concentration beside the values); active = potentiation of 50% or more; inconclusive = 30% to 50%; inactive = 30% or less;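 note: compound concentration not given in the record; tested on top of an EC20 dose of dopamine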
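PathHunter beta-arrestin assay in DiscoveRx D2 cells. Compounds were added with an EC20 of dopamine (50 nM final) for 90 min at 37 deg C. Luminescence was read 1 h after detection reagent, with 57 uM dopamine as the EC100 control.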
gsp agonist: gsp mutant agonism | AID 624287 | actives 0.13% (n = 340,000) | gsp mutant cells, cAMP HTRF, 30 min; control for the full effect not named in the record | Potency, µM (top dose mostly 76.9 µM), inactives show at the top dose activation (cAMP increase), usual class: activators; active = well fitted activation curve with a large enough effect; inconclusive = small, poorly fitted or top-dose-only effect, or another doubt; inactive = no such curve, though single readings can be large or run the other way; cell line not stated here;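 note: phosphodiesterase inhibitor Ro 20-1724 added with compounds to block cAMP breakdown; potency is the fitted concentration of half-maximal effect; nearly all actives have a fitted effect of over 60% in size; about a fifth of the inactives were tested at one dose only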
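Cells in DMEM/10% FBS with G418 were pretreated with compounds in DMSO plus […] (300 uM stock) for 30 min at 37C. cAMP was measured by HTRF (cAMP-d2 plus anti-cAMP antibody-K) after 30 min at room temperature.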
Six1-Eya2 blk: Six1/Eya2 interaction inhibition; Q15475+O00167; AlphaScreen GST-Six1/His-Eya2 binding, biochemical; active compounds read low; control for the full effect not named in the record; activity change, % (test concentration not listed); actives 0.56% (n = 360,000); in the data active = activity change below about -65%; inconclusive = about -30% to -65%; inactive = above about -30%; note: % is set by controls: 0 for no effect and ±100 for the full control effect
Target sequence (O00167 whole entry, looked up): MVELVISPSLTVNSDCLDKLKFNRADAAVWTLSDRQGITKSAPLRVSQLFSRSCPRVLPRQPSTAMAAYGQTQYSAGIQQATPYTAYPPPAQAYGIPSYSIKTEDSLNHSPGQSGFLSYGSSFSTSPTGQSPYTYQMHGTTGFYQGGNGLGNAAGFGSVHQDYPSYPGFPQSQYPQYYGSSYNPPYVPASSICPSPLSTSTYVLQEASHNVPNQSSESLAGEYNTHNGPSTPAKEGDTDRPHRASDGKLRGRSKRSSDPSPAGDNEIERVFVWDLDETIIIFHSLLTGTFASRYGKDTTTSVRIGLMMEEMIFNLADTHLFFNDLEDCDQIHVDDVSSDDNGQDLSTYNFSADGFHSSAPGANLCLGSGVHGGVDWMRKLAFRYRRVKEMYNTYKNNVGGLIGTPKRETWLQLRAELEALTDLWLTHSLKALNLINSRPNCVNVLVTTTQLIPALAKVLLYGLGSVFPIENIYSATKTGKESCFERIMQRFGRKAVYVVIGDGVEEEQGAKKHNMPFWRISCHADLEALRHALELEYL
Target sequence (Q15475 whole entry, looked up): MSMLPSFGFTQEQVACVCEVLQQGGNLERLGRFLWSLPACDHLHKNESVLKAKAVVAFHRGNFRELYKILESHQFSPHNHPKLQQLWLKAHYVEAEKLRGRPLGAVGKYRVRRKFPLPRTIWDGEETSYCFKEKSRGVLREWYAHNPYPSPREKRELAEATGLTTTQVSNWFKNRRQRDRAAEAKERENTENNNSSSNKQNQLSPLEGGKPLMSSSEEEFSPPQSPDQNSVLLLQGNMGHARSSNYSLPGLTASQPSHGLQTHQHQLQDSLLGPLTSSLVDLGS
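Compounds are tested against tagged Six1 and Eya2 proteins bridged by glutathione donor and nickel acceptor beads; after a one-hour incubation at 37 °C without light, AlphaScreen emission is recorded.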
CtBP-E1A inh: blocks the CtBP interaction with E1A; AlphaScreen GST-E1A/His-CtBP binding, 1536-well; active compounds read low; control for the full effect not named in the record; activity change, % (no concentration beside the values); actives 0.49% (n = 340,000); AID 651724; in the data active means activity change below about -65%; inconclusive means about -30% to -65%; inactive means above about -30%; note: % is set by controls: 0 for no effect and ±100 for the full control effect
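Protein mix (5X: 125 nM each GST-E1A, His-CtBP) was incubated with pinned compound 2 h at 37 deg C in dark, in 50 mM Tris pH 8.0 buffer with 300 mM NaCl. Glutathione donor and nickel acceptor beads followed; AlphaScreen signal read after 1 h.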
An asterisk follows results filed as active; ? = inconclusive; nt = not tested or not shown; [ ] = remark or other dose.

SMILES	gsp antagonist	D2 ag	D2 PAM	gsp agonist	Six1-Eya2 blk	CtBP-E1A inh
O=c1[nH]c2c(s1)C(c1cccnc1)C1C3CCC(C3)C1S2 (stereo not given)	3%	-1.1	-9	8%	0	nt
O=C(CCC(=O)N1CCCCCC1)Nc1ccc([N+](=O)[O-])cc1	3%	-3.3	-10	11%	4	-1
Cc1oc2c(c1C(=O)Nc1cccc3ccccc13)CCCC2	-22%	-1.2	12	-63%[inhibitor]	-10	-10
COCc1cc(CN2CCCC(C(=O)Nc3ccc(-c4ccco4)cc3)C2)ccc1OC (stereo not given)	11%	2.9	-28	9%	-19	-13
O=C(Nc1cccc(S(=O)(=O)N2CCCCC2)c1)C1CCCC1	-4%	0.9	3	-18%	-2	nt
Cc1cc(C)n(C(=O)CCC(=O)NCc2ccccc2)n1	-3%	-0.1	-5	-37%[inhibitor]	1	9
COc1cc(OC)cc(C(=O)Nc2cccc3c2CCCC3)c1	4%	0.8	-1	-92%[inhibitor]	9	-21
CC1CC(C)CN(C(=O)c2nn(C)c3c2CSc2ccccc2-3)C1 (stereo not given)	-5%	2.3	-1	-94%[inhibitor]	-5	-1
CCN(C(=O)COC(=O)c1ccccc1Nc1cccc(C)c1C)C1CCS(=O)(=O)C1 (stereo not given)	8%	-3.4	-25	0%	24	0
Cc1nc(NC(=O)CN2CCCCC2)sc1C(=O)N(C)C	11%	-0.9	-1	-2%	-5	4
COc1ccc(CNC(=O)C(C)N2C(=O)COc3ccc(C)cc32)c(OC)c1 (stereo not given)	-5%	-2.1	-2	-10%[15.4 µM]	0	4
OCc1ccc(-c2nn(Cc3ccccc3)c3ccccc23)o1	-6%	-4.4	-6	nt	-9	-9
CC1CC(C)CN(S(=O)(=O)c2ccc(F)c(C(=O)NC3CCCCC3C)c2)C1 (stereo not given)	nt	-1.4	-2	11%	-1	4
CC(=O)Oc1ccc2c(=O)c(-c3ccccc3)coc2c1	-12%	-7.2	-2	6%[15.4 µM]	-4	0
O=C(CN1CCCC1)Nc1ccccc1C(=O)c1ccccc1	-2%	-2.1	-12	12%	1	-1
Cc1c(CCC(=O)O)c(=O)oc2cc3occ(-c4ccc(Cl)cc4)c3cc12	-32%	7.7	-1	26%	?	-71*
O=C(Nc1cccc(C(F)(F)F)c1)C(Sc1cccc[n+]1[O-])c1ccccc1 (stereo not given)	2%	-2.0	-11	-59%[inhibitor]	8	5
Nc1nccc(SCc2ccc(Cl)cc2Cl)n1	7%	6.7	9	-92%	-2	-2
Cc1ccc(S(=O)(=O)NCC(=O)OCC(=O)Nc2ccccc2OC(F)F)cc1	0%	-3.2	-6	-28%	1	9
Cc1ccccc1NC(=O)Cn1nc(-c2ccc(Cl)s2)ccc1=O	11%	3.6	-8	7%	7	-8
COc1cc(OC)cc(C(=O)Nc2ccccc2C(=O)NC2CC2)c1	1%	-0.7	-14	-2%	-4	-1
Cc1ccc(N2C(=O)CC(N3CCN/C3=C3\CC/C(=C\c4ccccc4)C3=O)C2=O)cc1 (stereo not given)	-5%	-0.1	-11	-3%	5	-15
O=C(NCCCc1ccccc1)C(=O)NCC1OCCN1S(=O)(=O)c1cc(F)ccc1F (stereo not given)	3%	7.1	12	0%[15.4 µM]	-7	30
CCN(CC)CCCNC(=O)c1csc(Nc2cccc3ccccc23)n1	18%	-4.7	-23	-11%	-11	-6
COc1ccc(N2CCN(C(=O)COC(=O)c3oc4ccccc4c3C)CC2)cc1	-11%	1.6	5	0%	?	-23
O=[N+]([O-])c1cccc(C(=Nc2ccccc2)NO)c1	8%	1.1	-20	-2%	-10	-3
CN(C)c1ccc(/C=C/C(=O)c2ccccc2O)cc1	9%	-9.9	-10	14%	0	11
O=C(Oc1ccccc1N1C(=O)C2CCCCC2C1=O)c1ccccc1F (stereo not given)	2%	-1.5	-1	-20%	4	1
COc1ccc(NC(=O)CCNS(=O)(=O)c2ccc3c(c2)CC(C)N3C(C)=O)cc1 (stereo not given)	0%	-2.1	-16	-6%	0	-9
c1ccc2[nH]c(NC3=NCCC3)nc2c1	15%	-2.0	-11	19%	-10	-15
Cc1ccc2nc(C)c(C(=O)N/N=C/c3ccco3)cc2c1	6%	-6.0	-8	-9%	-3	-4
CCCc1nn(C)c(C(=O)Nc2ccc(Cl)cc2)c1Cl	-4%	-1.4	-11	-2%[15.4 µM]	5	9
Cc1ccc(NC(=O)CSc2nnc(CNC(=O)c3ccco3)n2C)c(C)c1	1%	-1.0	-9	-19%[15.4 µM]	13	9
Cc1cc2c(cc1S(=O)(=O)CCC(=O)NC1CCC(C)CC1)OCC(=O)N2 (stereo not given)	1%	-4.2	-4	2%	-1	0
CCCn1nc(Oc2nc(NCC)nc(NC(C)C)n2)ccc1=O	11%	0.0	13	6%	2	4
CCc1ccc([C@H]2C(C(=O)O)=C[C@@H](C(C)(C)C)N2S(=O)(=O)c2ccc(C)cc2)cc1	6%	-2.0	0	nt	1	-22
C/C(=N\NC(=O)C(c1ccncc1)N1CCOCC1)c1ccc(Br)cc1 (stereo not given)	5%	-8.9	-9	14%	13	0
COc1ccc(NC(=O)c2cccnc2SC)cc1OC	6%	-0.7	-1	4%	0	-19
CC12CCC(=O)N1C(C(=O)NCc1ccccc1F)CS2 (stereo not given)	10%	-2.5	3	-17%[15.4 µM]	11	-1
Cc1noc(C)c1-c1ccc(C(=O)Nc2cccc(NS(C)(=O)=O)c2)c2occc12	nt	4.7	6	nt	?	?
Cn1c(N)c(C(=O)CSc2nc(C3CC3)n(-c3ccccc3)n2)c(=O)n(C)c1=O	11%	-2.5	-3	?	-1	nt
CCCn1cc(CN2CCCC(C(=O)c3ccc4c(c3)OCO4)C2)c(C)n1 (stereo not given)	8%	0.9	-31	-67%[inhibitor]	-1	1
CC1CCN(CCCNC(=O)c2cn(C)c3ccc(S(=O)(=O)N4CCCC4)cc3c2=O)CC1	8%	-0.1	-5	-41%[inhibitor]	2	9
CCOC(=O)c1cnn2c1[nH]c(=O)c1ccccc12	5%	0.5	-28	21%	9	-1
CCn1c(OC)nc2c1c(=O)n(C)c(=O)n2C	9%	-3.0	-4	5%[15.4 µM]	4	8
N#C/C(=C(/O)COC(=O)COc1cccc(Br)c1)c1nc2ccccc2[nH]1	5%	-3.8	-6	4%	0	nt
CCOC(=O)CC(=O)CSc1nnc(Cn2c(=O)sc3ccccc32)n1C	-9%	1.0	-7	7%	3	1
COc1cc(/C=N/NC(=O)c2nnn(-c3nonc3N)c2-c2cccs2)ccc1O	22µM*	5.0	10	2%	-21	nt
C=CCn1c(O)c(CN2CCCCC2)c(C)c(C#N)c1=O	1%	7.5	1	-22%	-7	0
O=S1(=O)C[C@H](N2CCC[C@@H]2CO)[C@@H](COCc2ccccc2)N1	nt	-3.1	-6	nt	7	9

The results go on:
SMILES	gsp antagonist	D2 ag	D2 PAM	gsp agonist	Six1-Eya2 blk	CtBP-E1A inh
COCCn1nnnc1C(c1ccc(C)cc1)N1CCN(Cc2ccc3c(c2)OCO3)CC1 (stereo not given)	6%	-1.8	-28	-51%[inhibitor]	7	-5
O=C(COC(=O)C1CCN(c2ccc(C(F)(F)F)cn2)CC1)NC1CCCCC1	5%	-3.9	-4	44%[15.4 µM]	-1	9
O=C(c1cccs1)N1CCOCC1	11%	-2.9	-22	?	13	9
CCc1nnc(NC(=O)CCC(=O)N2CCC(Cc3ccccc3)CC2)s1	-14%	-1.1	-6	-54%[inhibitor]	1	7
COc1ccc(C2C=C(c3ccc(Br)cc3)Nc3nc(N4C(=O)CCC4=O)nn32)cc1 (stereo not given)	-5%	-4.4	-22	5%	-10	-3
O=C(NCc1cccc(Cl)c1)c1cnccn1	4%	0.0	-6	-19%	1	5
C#CCOC(=O)CCCC(=O)NCCCCCCCC	4%	-5.0	-4	-81%[inhibitor]	15	nt
Cc1nc(N)[nH]c(=O)c1CCC(=O)OCC(C)C	11%	0.2	-5	19%	2	5
CCOC(=O)C1=CCN(S(=O)(=O)c2ccccc2Br)C1c1cccc(Cl)c1 (stereo not given)	nt	-5.6	-7	nt	8	9
COC(=O)Cn1c(=O)n(CCc2ccccc2)c(=O)c2c3c(sc21)CCCC3	-14%	-3.0	-15	-43%[inhibitor]	-4	2
O=C(CCc1ccccc1)Nc1ccc2c(c1)C(=O)OC2	2%	1.4	-6	-9%[15.4 µM]	1	-1
Nc1ncn([C@H]2C[C@H](O)[C@@H](CO)O2)c(=O)n1	6%	-4.6	-12	nt	4	-17
O=C(NNC(=O)c1sc2cccc(Cl)c2c1Cl)NC1CCCCC1	5%	-1.7	-1	16%	-1	-5
O=C(CN1CCC(NC(=O)Nc2ccccc2-c2ccccc2)CC1)NCc1ccco1	7%	-5.9	-6	6%	3	0
Cc1ccc(C)c(-c2ccc(=O)n(Cc3c(F)cccc3Cl)n2)c1	-22%	-5.1	-5	-1%	-7	-1
COc1cc(N/C(N)=N/c2nc(C)cc(C)n2)cc(OC)c1	6%	-0.7	-7	-3%	1	-2

Compound activity: PubChem, National Center for Advancing Translational Sciences (NCATS)
